# From PubChem
# Env fusion inh: blocks HIV Env-driven cell-cell fusion | HeLa-JRFL Env/CEM21 cell fusion, luciferase | inhibition, % at 12.3 µM | AID 651610 | 1.1% of 360,000 active;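 active means mean replicate inhibition score of at least 50 and every replicate individually at or above 50; inconclusive means only one of the two criteria met; inactive means mean below 50 and not all replicates reaching 50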;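 further: 0% = plate neutral controls and 100% = maraviroc near 300 nM; one replicate is shown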
# UUG fidelity: yeast start codon fidelity modulation; S. cerevisiae UUG-firefly luciferase reporter, luminescence/redox ratio; activity score, % at 18.7 µM; 0.13% of 350,000 active; AID 602363;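 active means replicate mean at a twofold rise or more, about +100% in these data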;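 further: firefly luciferase made from a UUG start codon reports start codon fidelity; reporter light over untreated wells divided by growth signal over untreated wells; some hits fall short of that in this replicate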
# * hit, by the source's call; ? = inconclusive; [ ] = another dose, or the depositor's remark. Only part of the results is shown; count on the stated rates, not on these rows.
SMILES,Env fusion inh,UUG fidelity
C[C@@H]1CN([C@H](C)CO)C(=O)c2cc(NS(=O)(=O)c3ccc(Cl)cc3)ccc2O[C@H]1CN(C)Cc1ccncc1,5[16.7 µM],-10
C[C@@H]1CN([C@@H](C)CO)C(=O)c2cccc(NC(=O)C3CC3)c2O[C@H]1CN(C)C(=O)Nc1ccc2c(c1)OCO2,-14[16.7 µM],3
O=C(C[C@H]1CC[C@@H]2NC[C@@H](O)COC[C@H]2O1)NCc1ccc(Oc2ccccc2)cc1,-3[16.7 µM],-11
C[C@@H]1CCCCO[C@H](CN(C)S(=O)(=O)c2cn(C)cn2)[C@@H](C)CN([C@@H](C)CO)C(=O)c2cc(NC(=O)c3ccccc3)ccc2O1,13[16.7 µM],2
C[C@H](CO)N1C[C@H](C)[C@H](CN(C)Cc2ccc3c(c2)OCO3)Oc2ccc(NC(=O)CCC(F)(F)F)cc2CC1=O,7[16.7 µM],-4
C[C@H](NC(=O)C[C@H]1C=C[C@@H](NC(=O)c2cccnc2)[C@H](CO)O1)c1ccccc1,-4[16.7 µM],-6
CO[C@H]1CN(C)C(=O)c2cc(NS(=O)(=O)c3cccc(C)c3)ccc2OC[C@@H](C)NC[C@@H]1C,-7[16.7 µM],-6
COc1ccccc1-c1cnc2c(c1)C(=O)N([C@H](C)CO)C[C@H](C)[C@@H](CN(C)Cc1cccc(F)c1)O2,-6[16.7 µM],7
C[C@H](CO)N1C[C@H](C)[C@@H](CN(C)CC2CCCC2)OCc2cn(nn2)CCCC1=O,17[16.7 µM],-3
C[C@@H]1CN([C@@H](C)CO)C(=O)Cc2cc(NC(=O)Nc3ccc(F)cc3)ccc2O[C@@H]1CN(C)CC1CCCCC1,2[16.7 µM],-2
C[C@@H]1CN([C@H](C)CO)C(=O)c2cc(NC(=O)Nc3ccccc3)ccc2O[C@@H](C)CCCCO[C@@H]1CN(C)S(=O)(=O)c1ccc(Cl)cc1,6[16.7 µM],-7
O=C(N[C@H]1CC[C@@H](CCNC(=O)C2CCOCC2)O[C@@H]1CO)c1ccncc1,18[16.7 µM],-9
COc1ccc(S(=O)(=O)N(C)C[C@H]2Oc3c(NC(=O)Nc4c(C)noc4C)cccc3C(=O)N([C@@H](C)CO)C[C@@H]2C)cc1,?,22
COCC#Cc1ccc2c(c1)O[C@@H](CN(C)C)[C@H](C)CN([C@@H](C)CO)S2(=O)=O,-22[16.7 µM],-2
C[C@@H]1CCCCO[C@@H](CN(C)C(=O)Nc2ccccc2)[C@H](C)CN([C@@H](C)CO)C(=O)c2cc(NC(=O)c3ccccc3)ccc2O1,-7[16.7 µM],-8
C[C@H](CO)N1C[C@H](C)[C@H](CN(C)C(=O)Nc2cccc3ccccc23)Oc2ccc(NS(=O)(=O)c3cccs3)cc2CC1=O,-7[16.7 µM],-1
O=C(C[C@H]1CC[C@H]2[C@@H](COC[C@H](O)CN2S(=O)(=O)c2cccc(F)c2)O1)NC1CCC1,-7[16.7 µM],0
Cc1ccc(S(=O)(=O)N(C)C[C@H]2OCCCC[C@H](C)Oc3ccc(NC(=O)C4CCCCC4)cc3C(=O)N([C@H](C)CO)C[C@H]2C)cc1,-2[16.7 µM],-5
C[C@H](CO)N1C[C@H](C)[C@H](CN(C)C(=O)Nc2ccnc(N3CCOCC3)c2)OCc2cn(nn2)CCCC1=O,-29[16.7 µM],0
Cc1ccc(S(=O)(=O)N(C)C[C@@H]2OCCCC[C@H](C)Oc3ccc(NS(=O)(=O)c4cn(C)cn4)cc3C(=O)N([C@H](C)CO)C[C@@H]2C)cc1,-31[16.7 µM],-2
C[C@H](CO)N1C[C@H](C)[C@@H](CN(C)C(=O)C2CCC2)Oc2cc(C#CC(C)(C)O)ccc2S1(=O)=O,-9[16.7 µM],1
C[C@H](CO)N1C[C@H](C)[C@@H](CN(C)Cc2ccc(C(F)(F)F)cc2)Oc2c(NC(=O)Nc3ccc(C(F)(F)F)cc3)cccc2C1=O,32[16.7 µM],-7
C[C@H]1CN([C@@H](C)CO)C(=O)c2cc(Br)cnc2O[C@H]1CN(C)C(=O)NC1CCCC1,19[16.7 µM],25
O=C(N[C@H]1CC[C@H](CCNC(=O)C2CCOCC2)O[C@@H]1CO)c1ccncc1,-5[16.7 µM],-9
C[C@H]1CN([C@@H](C)CO)C(=O)Cc2cc(NC(=O)Nc3ccc(C(F)(F)F)cc3)ccc2O[C@@H]1CN(C)C(=O)Nc1ccccc1,-4[16.7 µM],11

# 4 entries already listed, ordered by SMILES length, descending:
SMILES,Env fusion inh,UUG fidelity
C[C@H]1CN([C@@H](C)CO)C(=O)Cc2cc(NC(=O)Nc3ccc(C(F)(F)F)cc3)ccc2O[C@@H]1CN(C)C(=O)Nc1ccccc1,-4[16.7 µM],11
COCC#Cc1ccc2c(c1)O[C@@H](CN(C)C)[C@H](C)CN([C@@H](C)CO)S2(=O)=O,-22[16.7 µM],-2
C[C@H](CO)N1C[C@H](C)[C@@H](CN(C)CC2CCCC2)OCc2cn(nn2)CCCC1=O,17[16.7 µM],-3
O=C(N[C@H]1CC[C@@H](CCNC(=O)C2CCOCC2)O[C@@H]1CO)c1ccncc1,18[16.7 µM],-9

# The listing picks up; the 2 compounds before the break are reprinted first.
SMILES,Env fusion inh,UUG fidelity
O=C(N[C@H]1CC[C@H](CCNC(=O)C2CCOCC2)O[C@@H]1CO)c1ccncc1,-5[16.7 µM],-9
C[C@H]1CN([C@@H](C)CO)C(=O)Cc2cc(NC(=O)Nc3ccc(C(F)(F)F)cc3)ccc2O[C@@H]1CN(C)C(=O)Nc1ccccc1,-4[16.7 µM],11
COc1ccc(CN(C)C[C@@H]2Oc3c(NC(=O)Nc4ccc(OC)cc4)cccc3C(=O)N([C@H](C)CO)C[C@@H]2C)cc1,-33[16.7 µM],14
C[C@@H]1CCCCO[C@H](CN(C)C(=O)Nc2cccc3ccccc23)[C@@H](C)CN([C@@H](C)CO)C(=O)c2cc(NC(=O)c3ccccc3)ccc2O1,-68[16.7 µM],-13
O=C(C[C@@H]1C[C@H]2c3cc(NC(=O)Nc4ccccc4)ccc3O[C@H]2[C@H](CO)O1)NCc1ccccn1,-20[16.7 µM],0
C[C@H]1CN([C@@H](C)CO)C(=O)c2cc(NC(=O)Cc3cn(C)c4ccccc34)ccc2O[C@H]1CN(C)S(=O)(=O)c1ccccc1,5[16.7 µM],-10
C[C@@H]1CN([C@H](C)CO)C(=O)c2cc(C#CC3CCCC3)cnc2O[C@@H]1CN(C)C(=O)C1CC1,4[16.7 µM],4
CNC[C@H]1Oc2ccc(NC(=O)c3ccncc3)cc2C(=O)N([C@H](C)CO)C[C@@H]1C,3[16.7 µM],-13
C[C@@H]1CN([C@H](C)CO)C(=O)c2cccc(N(C)C)c2O[C@H]1CN(C)Cc1ccncc1,11[16.7 µM],-16
C=CCN1Cc2ccccc2[C@@H]2OC(c3ccc(OCCCO)cc3)=N[C@]2(Cc2ccccc2)C1=O,44[16.7 µM],-9
C[C@H](CO)N1C[C@H](C)[C@@H](CN(C)Cc2ccncc2)Oc2ncc(-c3cncnc3)cc2C1=O,-20[16.7 µM],3
CCC(=O)Nc1ccc2c(c1)C(=O)N(C)[C@H]1CC[C@@H](CC(=O)NCc3ccccc3)O[C@H]1CO2,3[16.7 µM],-3
O=C(CN1CCOCC1)NCC[C@@H]1CC[C@@H](NS(=O)(=O)c2ccc(Cl)cc2)[C@H](CO)O1,0[16.7 µM],-6
C[C@H](CO)N1C[C@H](C)[C@@H](CN(C)S(C)(=O)=O)Oc2ccc(NC(=O)C3CC3)cc2CC1=O,-2[16.7 µM],-7
COCC#Cc1cnc2c(c1)C(=O)N([C@@H](C)CO)C[C@H](C)[C@@H](CN(C)C(=O)C1CCCCC1)O2,-12[16.7 µM],-10
CC(C)NC(=O)N(C)C[C@H]1Oc2c(NC(=O)c3nc4ccccc4s3)cccc2C(=O)N([C@H](C)CO)C[C@H]1C,-3[16.7 µM],5
Cc1noc(C)c1S(=O)(=O)Nc1ccc2c(c1)C(=O)N([C@@H](C)CO)C[C@@H](C)[C@@H](CN(C)C)OCCCC[C@H](C)O2,20[16.7 µM],12
CNC[C@H]1Oc2cc(C#Cc3cccc(OC)c3)ccc2S(=O)(=O)N([C@@H](C)CO)C[C@@H]1C,23[16.7 µM],11
O=C(C[C@H]1CC[C@@H]2[C@H](COC[C@@H](O)CN2C(=O)C2CCOCC2)O1)NCc1ccncc1,-19[16.7 µM],-12
COc1ccc(S(=O)(=O)Nc2ccc3c(c2)C(=O)N([C@@H](C)CO)C[C@@H](C)[C@H](CN(C)C(=O)CCCN(C)C)OCCCC[C@@H](C)O3)cc1,2[16.7 µM],18
COc1ccc(CNC(=O)C[C@@H]2C=C[C@@H](NC(=O)Nc3ccc4c(c3)OCO4)[C@@H](CO)O2)cc1,-13[16.7 µM],28
COc1ccccc1S(=O)(=O)N(C)C[C@H]1OCc2cn(nn2)CCCC(=O)N([C@H](C)CO)C[C@H]1C,12[16.7 µM],16
C[C@H]1CN([C@@H](C)CO)C(=O)c2cccc(NC(=O)c3ccncc3)c2O[C@@H]1CN(C)CC1CC1,5[16.7 µM],20
CC(=O)N(C)C[C@@H]1Oc2cc(C3=CCCC3)ccc2S(=O)(=O)N([C@@H](C)CO)C[C@@H]1C,10[16.7 µM],12
C[C@H]1CN([C@@H](C)CO)C(=O)c2cc(NC(=O)CCCN(C)C)ccc2O[C@@H]1CN(C)CC1CCCCC1,3[16.7 µM],-10
C[C@@H]1CCCCO[C@@H](CN(C)C(=O)Nc2cccc3ccccc23)[C@H](C)CN([C@@H](C)CO)C(=O)c2cc(NC(=O)CCC(F)(F)F)ccc2O1,4[16.7 µM],0
CN1CCN(C(=O)C[C@H]2CC[C@@H]3[C@@H](COc4ccc(NC(=O)C5CC5)cc4C(=O)N3C)O2)CC1,-5[16.7 µM],-13
# (further entries)
SMILES,Env fusion inh,UUG fidelity
C=CC[C@]12N=C(c3ccc(OCCCO)cc3)O[C@H]1c1ccccc1CN(C(=O)c1ccccc1)C2=O,-8[16.7 µM],-14
Cc1ccccc1-c1ccc2c(c1)O[C@@H](CN(C)Cc1ccncc1)[C@@H](C)CN([C@H](C)CO)S2(=O)=O,28[16.7 µM],-5
C[C@H]1CN([C@@H](C)CO)S(=O)(=O)c2ccc(C#CC3CCCC3)cc2O[C@@H]1CN(C)C(=O)C1CC1,12[16.7 µM],25
COc1ccc(S(=O)(=O)N(C)C[C@H]2OCCCC[C@H](C)Oc3ccc(NC(=O)CCCN(C)C)cc3C(=O)N([C@@H](C)CO)C[C@@H]2C)cc1,-11[16.7 µM],16
CC(C)C(=O)Nc1ccc2c(c1)C(=O)N(C)[C@H]1CC[C@@H](CC(=O)NCC3CC3)O[C@@H]1CO2,-12[16.7 µM],3
C[C@H]1CN([C@@H](C)CO)C(=O)c2cc(NC(=O)NC3CCCCC3)ccc2O[C@@H]1CN(C)C(=O)Nc1cccc2ccccc12,27[16.7 µM],-2
COc1ccc(S(=O)(=O)Nc2ccc3c(c2)C(=O)N([C@@H](C)CO)C[C@H](C)[C@H](CN(C)C(=O)NC2CCCCC2)OCCCC[C@H](C)O3)cc1,-173[16.7 µM],15
COc1ccc(CN(C)C[C@@H]2Oc3ccc(NC(=O)C4CC4)cc3CC(=O)N([C@@H](C)CO)C[C@@H]2C)cc1,-26[16.7 µM],-2
C[C@H]1CN([C@@H](C)CO)C(=O)Cc2cc(NC(=O)CCC(F)(F)F)ccc2O[C@@H]1CN(C)C(=O)Nc1cccc2ccccc12,19[16.7 µM],5
C[C@@H]1CN([C@H](C)CO)C(=O)c2cc(C#C[C@@H](C)O)cnc2O[C@H]1CN(C)C(=O)Nc1ccc(C(F)(F)F)cc1,2[16.7 µM],6
C[C@@H]1CCCCO[C@H](CN(C)Cc2ccccc2)[C@H](C)CN([C@H](C)CO)C(=O)c2cc(NS(=O)(=O)c3cn(C)cn3)ccc2O1,28[16.7 µM],9
COc1ccc(CN(C)C[C@H]2OCCCC[C@H](C)Oc3ccc(NS(=O)(=O)c4cn(C)cn4)cc3C(=O)N([C@H](C)CO)C[C@@H]2C)cc1,-6[16.7 µM],31
O=C(C[C@H]1C[C@@H]2c3cc(NC(=O)Nc4ccc(C(F)(F)F)cc4)ccc3O[C@@H]2[C@H](CO)O1)NCc1ccccn1,-3[16.7 µM],-23
CCC(=O)Nc1ccc2c(c1)OC[C@H](C)N(CC1CCOCC1)C[C@@H](C)[C@@H](OC)CN(C)C2=O,15[16.7 µM],0
C[C@@H]1CN([C@H](C)CO)C(=O)Cc2cc(NS(=O)(=O)c3cn(C)cn3)ccc2O[C@H]1CN(C)C(=O)Nc1ccccc1,12[16.7 µM],-19
COc1ccc(S(=O)(=O)Nc2ccc3c(c2)C(=O)N([C@@H](C)CO)C[C@H](C)[C@H](CN(C)S(C)(=O)=O)O3)cc1,-1[16.7 µM],-12
C[C@@H]1CCCCO[C@@H](CN(C)Cc2ccc(C(F)(F)F)cc2)[C@H](C)CN([C@H](C)CO)C(=O)c2cc(NS(=O)(=O)c3cccs3)ccc2O1,?,2
COc1ccc(S(=O)(=O)Nc2ccc3c(c2)C(=O)N([C@@H](C)CO)C[C@H](C)[C@H](CN(C)Cc2ccccc2)OCCCC[C@@H](C)O3)cc1,-42[16.7 µM],21
CNC[C@@H]1Oc2ccc(NC(=O)Cc3cn(C)c4ccccc34)cc2CC(=O)N([C@@H](C)CO)C[C@H]1C,15[16.7 µM],17
C[C@@H]1CCCCO[C@H](CN(C)S(C)(=O)=O)[C@H](C)CN([C@@H](C)CO)C(=O)c2cc(NC(=O)c3ccccc3)ccc2O1,-14[16.7 µM],-4

# Single records, as listed above.
# CCC(=O)Nc1ccc2c(c1)OC[C@H](C)N(CC1CCOCC1)C[C@@H](C)[C@@H](OC)CN(C)C2=O reads Env fusion inh = 15[16.7 µM]; UUG fidelity = 0
# CC(C)C(=O)Nc1ccc2c(c1)C(=O)N(C)[C@H]1CC[C@@H](CC(=O)NCC3CC3)O[C@@H]1CO2 reads Env fusion inh = -12[16.7 µM]; UUG fidelity = 3
